# AF4-AF9 inh: MLL-AF4/AF9 protein interaction inhibition. inhibition, % at 10 µM. AID 651704. AlphaScreen, biotin-AF4 peptide binding to FLAG-AF9. actives 0.47% (n = 350,000);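 active = every replicate reaching a set inhibition limit, whatever the replicate mean, cut at about 25% in these data; inconclusive = mean inhibition reaches that limit but some replicates miss it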;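 note: 0% = plate neutral control median and 100% = total signal loss; the record names both 10 and 1 µM as test concentration; the first replicate is given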
# Target sequence (P42568 whole entry, looked up): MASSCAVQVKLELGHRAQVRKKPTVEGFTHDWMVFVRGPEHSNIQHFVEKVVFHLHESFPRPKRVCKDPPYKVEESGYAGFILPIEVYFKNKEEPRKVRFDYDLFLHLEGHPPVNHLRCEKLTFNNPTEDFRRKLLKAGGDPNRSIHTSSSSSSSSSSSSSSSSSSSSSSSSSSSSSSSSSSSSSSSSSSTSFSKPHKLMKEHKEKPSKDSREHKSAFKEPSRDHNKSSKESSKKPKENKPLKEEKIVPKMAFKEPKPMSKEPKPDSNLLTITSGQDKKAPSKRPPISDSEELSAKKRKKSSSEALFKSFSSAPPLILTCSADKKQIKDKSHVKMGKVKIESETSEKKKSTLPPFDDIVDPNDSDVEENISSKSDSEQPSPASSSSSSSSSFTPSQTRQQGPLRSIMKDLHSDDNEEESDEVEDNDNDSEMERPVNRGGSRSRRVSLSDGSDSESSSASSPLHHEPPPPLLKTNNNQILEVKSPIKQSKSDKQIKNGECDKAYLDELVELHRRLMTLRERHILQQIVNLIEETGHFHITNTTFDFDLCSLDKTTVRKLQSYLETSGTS
# RanGTP-Imp inh: inhibitors of RanGTP-importin-beta interaction, primary screen, biochemical, FRET, CFP-Ran, YFP-importin-beta, homogeneous; cell-free CFP-Ran/YFP-importin-beta FRET ratio; inhibition, % (concentration not given with the values); actives 1.1% (n = 300,000); AID 2216;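 active = most replicates above 15%; inconclusive = exactly half above 15%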;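 note: 0% = DMSO wells and 100% = Ran loaded with GDP instead of GTP; wells of about 40 µL received 100 nL stock; the first replicate is given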
# ALR inh: human ALR oxidase inhibition via reduced H2O2; P55789; purified ALR, DTT oxidation, H2O2 HRP-luminol luminescence; inhibition, % (test concentration not listed); actives 3.8% (n = 290,000); AID 485317;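 active = mean and each replicate at 75% or more; inconclusive = only one of the two met; inactive = neither met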;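 note: stock transfer was 7.5 nL into about 7.5 µL; 0% = neutral wells and 100% = wells with inactivated enzyme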
# Target sequence (P55789 whole entry, looked up): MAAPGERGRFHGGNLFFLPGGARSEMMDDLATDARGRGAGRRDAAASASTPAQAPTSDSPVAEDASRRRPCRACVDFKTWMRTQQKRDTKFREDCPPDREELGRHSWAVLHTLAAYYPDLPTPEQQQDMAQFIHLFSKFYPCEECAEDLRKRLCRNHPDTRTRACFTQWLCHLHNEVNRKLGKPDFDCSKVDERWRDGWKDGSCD
# rRNA inh HTS: selective bacterial rRNA inhibition in E. coli; GFP signal change (wild-type ribosome), % (test concentration not listed); actives 1.6% (n = 350,000); E. coli WT GFP vs humanized-ribosome RFP mutants, fluorescence, 24 h; active compounds read low; DMSO median 0, no signal -100;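 active = significant combined selectivity score with lowered wild-type GFP, culture density cut under 30%, mutant RFP and density less affected; inactive = any of these conditions unmet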; note: one replicate is shown; some compounds called inactive have numbers as strong as hits
# Calb FLC: affects C. albicans growth with fluconazole. C. albicans CaCi-2 (fluconazole-resistant clinical isolate) + fluconazole, Alamar Blue growth, 48 h. growth inhibition, % (test concentration not listed). actives 0.57% (n = 300,000);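 active = most replicates above 75%; inconclusive = exactly half above 75%; inactive = most below 75%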;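 note: all wells also contain fluconazole at 8 µg/ml as a sub-toxic cotreatment; 0% = median of DMSO wells and 100% = median of geldanamycin control wells; wells of about 8 µL received 7.5 nL stock; the first replicate is given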
# T cruzi inh: blocks replication of Trypanosoma cruzi | T. cruzi beta-gal in NIH3T3, luminescence, 90 h | inhibition, % (concentration not given with the values) | actives 1.4% (n = 300,000);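 active = mean inhibition across valid replicates above about 55%, limit read from the data; inconclusive = mean below that limit but half or more replicates reach it; inactive = mean below it, under half of replicates reach it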;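 note: signal also drops with host cell toxicity which is not excluded here; 0% = plate median of DMSO wells and 100% = zero luminescence signal; higher percent means less beta-gal luminescence so fewer parasites; stock transfer was 50 nL into about 50 µL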
# Beta cell apopt: blocks beta cell apoptosis; INS-1E cytokine-induced death, ATP luminescence, 48 h; percent of positive-control rescue, neutral wells zero; protection from apoptosis, % (no concentration beside the values); actives 0.8% (n = 300,000); AID 435005;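 active = all replicates at 75% or more, or half of them and the mean; inconclusive = half reach 75% but not the mean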;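 note: 0% = cytokine-treated negative control wells and 100% = positive control rescue; higher means more ATP so stronger rescue from cytokine killing; wells of about 40 µL received 100 nL stock; the first replicate is given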
# FGF22 binding: binders of recombinant human FGF22 by thermal shift; actives 1.5% (n = 340,000); SYPRO orange fluorescence; percent of sucrose octasulfate shift, DMSO zero; Q9HCT0; AID 651658; calls only at 9.99 µM;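 active = melting point raised past a set limit in the mean and every replicate; inconclusive = no clear call; three in four hits are not shown here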
# Target sequence (Q9HCT0 whole entry, looked up): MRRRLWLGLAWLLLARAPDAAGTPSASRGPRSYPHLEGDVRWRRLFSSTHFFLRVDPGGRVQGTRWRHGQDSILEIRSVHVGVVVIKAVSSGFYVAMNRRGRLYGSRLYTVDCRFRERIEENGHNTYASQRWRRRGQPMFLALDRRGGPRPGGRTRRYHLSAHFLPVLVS
# rRNA inh HTS OD600: second read-out of rRNA inh HTS, no call of its own (marks repeat the call); OD600 change, %; measured here: OD600 growth;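 optical density of the mix in the first replicate; 0 = DMSO median and -100 = no signal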
# rRNA inh HTS RFP: second read-out of rRNA inh HTS, no call of its own (marks repeat the call); RFP signal change, %; measured here: RFP humanized mutant strains;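 first replicate; 0 = DMSO median and -100 = no signal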
# * marks the source's active call; other numbers are inactive results; i = inactive; ? = inconclusive; nt = not tested or not shown.
SMILES,AF4-AF9 inh,RanGTP-Imp inh,ALR inh,rRNA inh HTS,rRNA inh HTS OD600,rRNA inh HTS RFP,Calb FLC,T cruzi inh,Beta cell apopt,FGF22 binding
CCOC(=O)/C=C/COc1ccccc1[N+](=O)[O-],0.4,3.0,43,-1,-4,1.6,-8,-11,-6,i
CCCc1cc(=O)oc2cc(C)cc(OCC(=O)Nc3cccnc3)c12,0.5,-2.5,-9,4,5,2.1,-8,15,12,i
O=C(NCC1CCCO1)c1onc(CSc2ccc(F)c(F)c2)c1C(=O)O (stereo not drawn),12,?,49,-14,-16,-3.5,-5,-3,3,i
N#Cc1ccc(COC(=O)CC(NC(N)=O)c2ccc(Cl)cc2)cc1 (stereo not drawn),-1.7,-1.4,7,-2,-6,-0.6,2,-8,nt,i
O=S(=O)(/N=C(/Nc1cccc2ccccc12)c1ccc(F)cc1)c1ccccc1,-0.1,-2.2,-5,-5,-26,-1.8,-2,6,4,i
COCCNC(=O)/C(C#N)=C/c1c(N2CCN(C)CC2)nc2c(C)cccn2c1=O,-0.1,-52,-4,3,6,-0.4,0,-10,2,i
COC(=O)c1ccc(OC)c(CSc2nnc(-c3ccc(C(C)(C)C)cc3)o2)c1,nt,-1.2,nt,nt,nt,nt,12,19,4,nt
C=C(C)COc1ccc(-c2[nH]ncc2Oc2cccc(OC)c2)c(O)c1,nt,-1.5,-2,nt,nt,nt,-6,-4,1,nt
CN(Cc1ccccc1)C(=O)COc1ccc(N(C)S(=O)(=O)c2ccc(F)cc2)cc1,0.5,0.0,-8,-18,-12,-0.8,0,17,-1,i
C/C(=N\NC(=S)NCC(C)(C)C)c1cc(F)cc(F)c1O,-0.5,-0.4,37,-44,-53,-12,1,-1,57,i
O=C(COC(=O)c1ccc(Cl)cc1[N+](=O)[O-])NNC(=O)c1cccs1,-3.9,-0.8,-13,-7,-2,-4.9,4,-9,-6,i
CC(C)(C)NC(=O)COC(=O)c1ccccc1Nc1ccc(SC(F)F)cc1,nt,-0.5,nt,nt,nt,nt,0,1,-3,nt
CCN(CC(=O)Nc1ccccc1C(F)(F)F)C(=O)Cc1ccccc1,0.8,5.6,nt,5,12,-1.0,0,nt,-2,i
CC1=C(C(=O)OC(C)C)C(c2ccc(Br)s2)NC(=O)N1C (stereo not drawn),nt,5.3,-3,nt,nt,nt,-12,9,-5,nt
CC(C)(C)n1nc2c(c1NC(=O)c1ccc(F)c(F)c1)CS(=O)(=O)C2,-0.3,4.2,-6,5,18,3.7,-1,-11,0,i
O=C(/C=C/c1ccccc1)NC(=S)Nc1ccccc1C(=O)NC1CCCCC1,nt,-6.7,-3,nt,nt,nt,0,9,38,nt
COc1cc(/C=C2\SC(=O)N(CC(=O)Nc3ccccc3F)C2=O)cc(Cl)c1O,-1.8,-8.5,-7,4,5,5.2,38,5,12,i
CNC(=O)c1c(NC(=O)c2cccc(N3C(=O)CCC3=O)c2)sc2c1CCC2,6.9,5.0,nt,-10,-8,24,7,1,-5,i
Cc1ccc(CSc2nnc(-c3ccco3)n2N)cc1,nt,4.6,-1,nt,nt,nt,-33,4,1,nt
Cc1ccc(S(=O)(=O)Nc2cc3c(cc2C#N)OCO3)cc1C(N)=O,-2.4,9.3,nt,9,-1,-1.8,1,-4,-12,i
Cc1cc([N+](=O)[O-])cc([N+](=O)[O-])c1NCC(C)C,-1.6,4.9,6,-2,-10,-4.1,53,-1,4,i
C/C(CCC(C)C)=N\NC(=S)NCc1ccccc1,-4.8,8.2,28,7,10,0.4,-28,16,-3,i
Cc1nnc(C)n1N1C(=O)c2cccc3cccc(c23)C1=O,0.8,2.5,-5,17,8,5.8,-13,3,1,i
O=C1Nc2c(c(=O)[nH]c(=O)n2-c2ccc(F)cc2)C1(NS(=O)(=O)c1ccccc1)C(F)(F)F (stereo not drawn),-23,1.4,-4,2,2,0.4,-3,7,-4,i
O=C(NCCCN1CCOCC1)c1ccc(CNS(=O)(=O)c2ccc(F)cc2)cc1,nt,10.0,-20,nt,nt,nt,14,0,-9,nt
# (list continues)
SMILES,AF4-AF9 inh,RanGTP-Imp inh,ALR inh,rRNA inh HTS,rRNA inh HTS OD600,rRNA inh HTS RFP,Calb FLC,T cruzi inh,Beta cell apopt,FGF22 binding
COc1ccccc1CNC(=O)C1CC(=O)N(c2ccc(C)c(C)c2)C1 (stereo not drawn),nt,?,-7,7,12,1.1,28,15,4,nt
O=C(c1ccco1)N1CCCC(c2ccccc2)C1 (stereo not drawn),nt,-0.5,-4,nt,nt,nt,2,-18,-3,nt
Cn1ncc(C(=O)N=S(C)(=O)c2ccccc2)c1[N+](=O)[O-] (stereo not drawn),5.4,-0.8,-12,3,-3,-0.7,-13,1,-2,i
c1ccc(Sc2ncnc3c2oc2ccccc23)cc1,nt,-0.7,22,nt,nt,nt,1,-3,-6,nt
COc1ccccc1CNC(=S)Nc1ccc(F)cc1,1.8,0.5,19,-5,0,-13,-61,-13,3,i
O=C(NCc1ccc2[nH]c3c(c2c1)CCCC3)c1ccc(S(=O)(=O)N2CCOCC2)cc1,-0.3,6.5,-49,-1,6,1.5,-1,2,5,i
CCO[C@@H]1OC(C(=O)O)=C[C@H](c2cn(C(C)=O)c3ccccc23)[C@H]1CCCO,nt,-0.7,-7,nt,nt,nt,-4,-14,-5,nt
COc1ccc(CCNC(=O)c2cccc(NC(=O)CC3SC(N4CCCCC4)=NC3=O)c2)cc1OC (stereo not drawn),-0.2,1.5,0,4,1,1.3,-3,0,-4,i
COc1ccccc1-n1c(CNC(=O)c2ccc(S(=O)(=O)N3CCCCC3)cc2)n[nH]c1=S,-3.5,2.7,?,-15,-18,-0.2,-1,6,nt,i
COc1ccc(OCCN2CCOCC2)cc1,-5.1,?,-2,18,9,9.8,-1,-3,-8,i
CC(C)(C)OC(=O)N1CCC(c2c(C(=O)O)cnn2-c2ccccc2)CC1,7.5,-0.4,-7,5,-8,-6.8,2,-7,-3,i
CS(=O)(=O)N(CC(=O)NCCSC1CCCCC1)c1ccccc1,-0.3,6.2,1,2,-9,-1.2,-8,-3,-3,i
Cc1ccc(CNC(=O)c2ccc(NS(=O)(=O)c3c(C)noc3C)cc2)cc1,nt,-0.5,4,nt,nt,nt,14,-11,4,nt
CCCCC1CCC(c2ccc(C(N)=O)cc2)CC1 (stereo not drawn),-0.9,3.9,-1,4,4,0.6,11,-18,-2,i
Cn1c(SCC(=O)NC2(C#N)CCCCC2)nnc1-c1cccnc1,-3.9,?,1,-2,8,1.2,-6,-18,nt,i
CCN1CCN(CCNC(=O)c2cn(C(C)c3ccccc3F)nn2)CC1 (stereo not drawn),nt,-7.1,-7,nt,nt,nt,-2,-13,-2,nt
CC(=O)C1C(=O)c2c(cccc2[N+](=O)[O-])C1=Nc1ccccc1C (stereo not drawn),4.1,2.2,-1,5,6,-3.6,-1,13,-5,i
Cc1ccc(C(=O)c2oc3nc(C)cc(C)c3c2N)cc1,nt,0.6,18,nt,nt,nt,121*,-2,9,nt
Cc1cc(C)nc(Sc2c(C)nn(-c3ccccc3)c2C)n1,nt,4.3,80*,nt,nt,nt,12,-8,-3,nt
COc1ccc2c3n([n+]([O-])c2c1)CCN=C3c1cc(Cl)c(N)c(Cl)c1,9.4,nt,-38,-22,-28,-6.6,nt,nt,1,i
COc1ccc(NC(=O)C2COc3ccccc3O2)cc1 (stereo not drawn),-4.1,3.2,-11,16,20,1.5,-5,-12,3,i
Cc1ccnc(NC(=O)c2cccs2)c1,nt,0.4,-5,nt,nt,nt,-5,3,11,nt
CCCn1nc(C(=O)NNC(=O)CCOc2ccccc2OCC)c2ccccc2c1=O,-1.7,-2.2,17,2,0,-2.1,2,-6,-3,i
COc1ccc(/C=C2\SC(=S)N(CCC(=O)N(CCO)c3ccccc3)C2=O)cc1OC,-1.3,-0.9,-12,-4,9,1.0,3,33,-23,i
CCOc1cc(CNc2ccc(O)cc2)cc(Br)c1OCc1ccccc1F,nt,-8.2,10,nt,nt,nt,18,15,16,nt
# Other entries follow:
SMILES,AF4-AF9 inh,RanGTP-Imp inh,ALR inh,rRNA inh HTS,rRNA inh HTS OD600,rRNA inh HTS RFP,Calb FLC,T cruzi inh,Beta cell apopt,FGF22 binding
COc1ccc(CN(C(=O)c2ccc(-c3ccccc3)[nH]2)C(C(=O)NC(C)(C)C)c2ccncc2)cc1 (stereo not drawn),14,?,-1,-16,-7,-3.1,18,59*,-5,i
CN(C)CC[C@@H](c1ccc(Cl)cc1)c1ccccn1,0.9,-0.7,-1,2,3,-0.9,-2,-24,-4,i
Cc1ccc(N=CC2=C(O)CC(c3ccco3)CC2=O)cc1 (stereo not drawn),nt,-2.4,-17,nt,nt,nt,-1,-4,nt,nt
Cc1cccc(NC(=S)NC(=O)c2ccc(Br)o2)c1C,0.0,?,1,19,8,0.7,43,-17,11,i
O=C(CCNS(=O)(=O)c1ccc(Cl)cc1)N1CCC2(O)CCCCC2C1 (stereo not drawn),nt,2.8,nt,nt,nt,nt,-1,3,1,nt
CCOC(=O)c1cnc(SCC#N)nc1N,-1.3,-4.8,-16,6,-3,-0.3,10,-3,-1,i
CC(=O)NC(=O)c1nnn(Cc2ccccc2)c1NC(C)=O,nt,0.1,-6,nt,nt,nt,14,-10,2,nt
C[C@@H]1CC[C@]2(C(=O)O)CC[C@]3(C)C(=CCC4[C@@]5(C)CC[C@H](O)[C@@](C)(C(=O)O)C5CC[C@]43C)C2[C@]1(C)O (stereo partly drawn),-1.9,nt,1,2,-11,-2.8,nt,nt,-9,i
CCCCn1c(=O)c(CCC(=O)O)nc2ccccc21,-1.9,3.9,-8,3,-7,-1.4,-1,-5,-3,i
Nc1c(Cl)ncnc1N/N=C/c1ccc2ccccc2n1,17,nt,55,-20,-65,-26,nt,nt,113*,i
COc1ccc(OC)c(NC(=O)C2CCCN(S(=O)(=O)c3c(C)nn(C)c3C)C2)c1 (stereo not drawn),3.5,-1.8,-6,-3,-4,0.8,-2,7,-1,i
O=C(Nc1cc(S(=O)(=O)N2CCOCC2)ccc1Cl)c1cc(=O)c2ccccc2o1,-3.9,?,-2,18,16,-1.4,-4,-1,8,i
O=C(Cn1ncc2c3ccccc3n(Cc3ccc(Cl)cc3)c2c1=O)NCCCN1CCCC1=O,-0.4,4.1,0,13,11,4.7,-11,16,7,i
COc1ccc(NC2=NC(=S)N(c3cccc(C)c3)C23CCCCC3)cc1,nt,-3.7,nt,nt,nt,nt,-5,-9,-4,nt
CC(C)C(=O)Nc1nnc(NC(=S)Nc2ccccc2)s1,6.4,8.0,82*,-34*,-6.0*,0.8*,2,-15,7,i
CCN(CC(=O)NCCCn1ccnc1)S(=O)(=O)c1ccc(C)cc1,-1.3,5.1,26,18,14,4.1,20,6,-6,i
CC(C)NC(=O)c1ccccc1NC(=O)C1CC(=O)N(C(C)C)C1 (stereo not drawn),-0.2,3.6,nt,19,18,-0.4,-1,-4,-9,i
CCOC(=O)c1cnc2cc(F)c(F)cc2c1N1CCN(C)CC1,-0.9,-0.6,-15,-2,6,-1.5,3,17,-5,i

# Screening results (PubChem BioAssay)

# These rows are one share of the data; count on the stated rates, not on these rows.
